D2 ag = Beta-Arrestin HTS for Positive Allosteric Modulators of the Human D2 Dopamine Receptor: Agonists; DiscoveRx PathHunter D2 beta-arrestin, luminescence, 90 min; 100% = 57 uM dopamine signal; activation, % (no concentration beside the values); actives 0.084% (n = 360,000); in the data active = activation above about 40%; inconclusive = about 15% to 40%; inactive = below about 15%; also: compound concentration not given in the record; the text of the record calls up to 30% inactive
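Agonist mode: compounds alone added to overnight-plated D2 PathHunter cells for 90 min at 37 C, with 57 uM final dopamine (EC100) defining full response. Beta-arrestin recruitment detected by chemiluminescent reagent, read after 1 h at ambient temperature.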
PINK1 expr mod = A Quantitative High throughput Screen to Identify Chemical Modulators of PINK1 Expression | PINK1 immunofluorescence, high-content cytometry, 24 h | Potency, µM (doses to about 76.6 µM), inactives show at the top dose activation (PINK1 increase), hits mostly activators | actives 0.2% (n = 410,000); active = well fitted activation curve with a large enough effect; inconclusive = small, poorly fitted or top-dose-only effect; inactive = flat fitted curve, though single readings scatter; cell line not stated here;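 also: potency is read from the fitted curve at half-maximal effect; % of control where 0% means no effect; nearly all actives have a fitted effect of over 65% in size; a mitochondrial uncoupler was the plate control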
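Readout is PINK1 immunofluorescence, quantified alongside mitochondrial, cell and nuclear markers by laser-scanning microplate cytometry. Cells from a stable line were exposed to compound titrations (5 concentrations) for 24 hours, with CCCP controls.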
CtBP-E1A inh = qHTS Assay for Inhibitors of the CtBP/E1A Interaction. CtBP / adenovirus E1A interaction (AlphaScreen). AlphaScreen GST-E1A/His-CtBP binding, 1536-well; active compounds read low; control for the full effect not named in the record. activity change, % (concentration not given with the values). actives 0.49% (n = 340,000); in the data active means activity change below about -65%; inconclusive means about -30% to -65%; inactive means above about -30%; also: % is scaled to controls: 0 for no effect and ±100 for the full control effect
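GST-E1A and His-tagged CtBP (125 nM each as 5X stock) were preincubated with pin-transferred compound for 2 h at 37 °C in the dark, then glutathione donor and nickel acceptor beads were added for 1 h before AlphaScreen reading.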
TRPV1 potentiator = HTS Assay for Compounds that Act as Potentiators of the Vanilloid Receptor 1 | TRPV1-expressing cells, Fluo-8 calcium influx, capsaicin EC20 potentiation; host cell line not named in the record; control for the full effect not named in the record | potentiation, % at 8.33 µM | actives 0.02% (n = 320,000); active means potentiation above 80%; inconclusive means 30% to 80%; inactive means below 30%; also: 0% is about no effect
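Cells expressing TRPV1 were dye-loaded with Fluo-8 and read kinetically: 10 s baseline, 3 min after compound (agonist portion), then 2 min after EC20 capsaicin (allosteric enhancer portion). Calcium-bound dye fluorescence at 480/520 nm.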
Sfp inh = qHTS Assay for Inhibitors of Bacillus subtilis Sfp phosphopantetheinyl transferase (PPTase); Biochemical Sfp PPTase activity, qHTS; Potency, µM, for the others: max response, negative = inhibition, actives largely listed as inhibitors; actives 3.5% (n = 310,000); active = well fitted inhibition curve with a large enough effect; inconclusive = small, poorly fitted or top-dose-only effect, or another doubt; inactive = no such curve, though single readings can be large or run the other way;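 also: the enzyme is Sfp with the accession as filed and its product quenches rhodamine fluorescence; potency is read from the fitted curve at half-maximal effect; 0% = enzyme reaction without inhibitor and -100% = no enzyme wells; top concentration of the series not given in the record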
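Step 1, compound plus 15 nM Sfp-PPTase, 15 min, room temperature. Step 2, add rhodamine-CoA (5 uM) and BHQ-2-YbbR (12.5 uM). Step 3, read 525/598 nm fluorescence at 0 and 30 min.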
Six1-Eya2 blk = qHTS Assay for Inhibitors of the Six1/Eya2 Interaction. activity change, % (no concentration beside the values). AlphaScreen GST-Six1/His-Eya2 binding, biochemical; active compounds read low; control for the full effect not named in the record. actives 0.56% (n = 360,000); in the data active = activity change below about -65%; inconclusive = about -30% to -65%; inactive = above about -30%; also: % is scaled to controls: 0 for no effect and ±100 for the full control effect
Target sequence (O00167 whole entry, looked up): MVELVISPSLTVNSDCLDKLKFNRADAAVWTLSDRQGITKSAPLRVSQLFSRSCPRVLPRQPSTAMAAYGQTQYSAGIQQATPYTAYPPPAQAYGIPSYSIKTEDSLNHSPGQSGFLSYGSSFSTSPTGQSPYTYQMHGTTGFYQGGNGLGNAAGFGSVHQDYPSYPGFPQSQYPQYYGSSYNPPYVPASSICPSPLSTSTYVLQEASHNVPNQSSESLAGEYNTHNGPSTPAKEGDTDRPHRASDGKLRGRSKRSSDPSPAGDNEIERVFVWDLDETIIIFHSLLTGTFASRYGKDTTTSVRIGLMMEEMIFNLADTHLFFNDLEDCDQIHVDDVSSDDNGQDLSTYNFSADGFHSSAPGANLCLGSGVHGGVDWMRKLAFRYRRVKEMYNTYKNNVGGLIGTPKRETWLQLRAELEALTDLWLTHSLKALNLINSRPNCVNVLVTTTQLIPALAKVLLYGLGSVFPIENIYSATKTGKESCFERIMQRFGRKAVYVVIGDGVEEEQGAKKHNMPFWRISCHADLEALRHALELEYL
Target sequence (Q15475 whole entry, looked up): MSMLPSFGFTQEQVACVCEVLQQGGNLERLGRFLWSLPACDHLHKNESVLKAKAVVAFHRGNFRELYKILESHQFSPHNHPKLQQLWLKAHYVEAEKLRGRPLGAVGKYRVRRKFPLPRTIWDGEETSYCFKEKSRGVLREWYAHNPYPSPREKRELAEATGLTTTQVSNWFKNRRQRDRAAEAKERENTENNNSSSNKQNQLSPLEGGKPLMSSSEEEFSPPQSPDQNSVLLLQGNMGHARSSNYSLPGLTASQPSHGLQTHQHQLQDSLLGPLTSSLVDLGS
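AlphaScreen with GST-Six1 and His-Eya2 (5X mix: 250 nM and 500 nM), glutathione donor and nickel acceptor beads; buffer 50 mM Tris pH 8.0, 300 mM NaCl, 1 mM TCEP; 1 h at 37 C in the dark.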
D2 potentiator = Beta-Arrestin HTS for Positive Allosteric Modulators of the Human D2 Dopamine Receptor: Potentiators; D(2) dopamine receptor (Homo sapiens), P14416; DiscoveRx D2 beta-arrestin cells, luminescence, 90 min; 100% = 57 uM dopamine signal; potentiation, % (no concentration beside the values); actives 0.23% (n = 360,000); AID 624464, 2012; active = potentiation of 50% or more; inconclusive = 30% to 50%; inactive = 30% or less;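 also: compound concentration not given in the record; tested on top of an EC20 dose of dopamine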
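PathHunter D2 cells, attached overnight at 37 deg C, received compound in DMSO plus dopamine at EC20 (50 nM final) for 90 min at 37 deg C. Beta-arrestin recruitment was read as luminescence after 1 h with detection reagent at ambient temperature.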
* hit, by the source's call; ? = inconclusive; · = not tested or not shown; & = joins results of further samples; [ ] = remark or other dose. This is a random part of the collection (roughly 3.7% active in at least one column).

SMILES | D2 ag | PINK1 expr mod | CtBP-E1A inh | TRPV1 potentiator | Sfp inh | Six1-Eya2 blk | D2 potentiator
Cn1c(/N=C/c2c(O)ccc3ccccc23)nc2ccccc21 | 11.1 | 1.4%[38.3 µM] | -18.8 | -3.9 | 0.891µM* | -2.1 | ?
Cc1ccc(NC(=O)C2CCC2)cc1S(=O)(=O)N1CCCCCC1 | -2.2 | 1.5% | -1.1 | -7.3 | · | 1.3 | 4.7
CC(=O)N(Cc1ccccc1)C(CC(=O)NCc1ccccc1)C(=O)O (stereo not given) | -3.7 | -2.1% | 9.6 | · | · | 2.0 | -5.1
N#Cc1ccc(OCC(=O)NC(=O)NC2CCS(=O)(=O)C2)cc1 (stereo not given) | -1.9 | -0.2% | -7.3 | -21.7 | · | 3.9 | -1.0
CCOC(=O)Cn1c(=O)sc2ccccc21 | 2.7 | 2.1%[38.3 µM] | 4.5 | -4.2 | 3.4% | 4.5 | -3.5
Cc1ccc(N2C(=O)C3N=NN(CC(=O)N4N=C(c5cccc6ccccc56)CC4c4ccccc4)C3C2=O)cc1 (stereo not given) | -4.4 | -0.2% | -4.3 | -13.9 | 10.1% | -2.9 | -5.5
CC(=O)N/C(=C\c1ccccc1)C(=O)OCC(=O)c1ccccc1 | -2.0 | -2.4% | 3.6 | 1.5 | · | 4.5 | -4.7
O=C(COC(=O)c1c(F)cccc1F)Nc1ccc2[nH]c(=O)[nH]c2c1 | 3.3 | 0.1% | 2.1 | -4.3 | -23.8% | -11.9 | -0.5
Cc1cccc(OCC(=O)NC2CC(C)(C)NC(C)(C)C2)c1 | 1.0 | -1.9% | 4.2 | 2.4 | 26.9% | 7.0 | -4.0
CCN1C(=O)/C(=C/N(C)C)c2ccccc21 | -1.4 | 2.6% | -3.3 | -3.2 | 12.9% | 1.8 | -16.8
CC(C)(CNC(=O)c1cccc(S(=O)(=O)N2CCCCC2)c1)N1CCOCC1 | -2.2 | 0.4% | -8.9 | · | · | 5.8 | -3.1
COc1ccc(NC(=O)CN(c2ccc(Cl)cc2)S(C)(=O)=O)cc1OC | -2.8 | 8.0% | 3.7 | -3.4 | 4.3% | -9.1 | 0.0
COc1ccc(C2C(C#N)=C(N)Nc3nc4ccccc4n32)cc1 (stereo not given) | 0.8 | 1.9% | -12.7 | -3.7 | 26.7% | -9.5 | -0.1
COC(=O)Cn1cnc2c(nnn2-c2cccc(OC)c2)c1=O | -0.4 | -0.8% | 6.9 | -0.5 | 15.0% | 6.3 | 0.0
Cc1nc(CSc2ccc(Cl)cc2)cs1 | -3.4 | 0.8% | 13.5 | ? | 5.0% | 24.7 | -5.3
O=C(CCNC(=O)c1ccco1)NC(Cc1c[nH]c2ccccc12)C(=O)O (stereo not given) | -0.4 | 2.5% | · | -6.7 | · | 10.2 | -11.7
O=C1CN(C(=O)CSc2ccc(-c3ccc(F)cc3)nn2)c2ccccc2N1 | 0.5 | 2.4% | 0.4 | 0.2 | 3.8% | -7.2 | -5.9
O=C(CNC(=O)C1CCCCC1)Nc1ccccc1 | -0.1 | -0.4% | 9.5 | -1.5 | -5.5% | 4.0 | 14.6
Cc1ccc(S(=O)(=O)N2[C@H](c3cccc(Cl)c3)CC(=O)[C@@H]3CN(S(=O)(=O)c4ccccc4C)[C@H](c4ccc(Cl)cc4)C[C@@H]32)cc1 | 12.2 | 0.6% | -12.6 | · | · | -2.0 | ?
CC1=C(C(=O)N2CCOCC2)CC(CC(=O)NC2CCCCC2)C(=O)N1CCCN1CCCC1=O (stereo not given) | 1.9 | 1.8% | 5.0 | · | · | 2.7 | 4.1
OC(COC(c1ccccc1)c1ccccc1)CN1CCCCC1 (stereo not given) | -3.1 | -1.8% | -2.0 | ? | -2.5% | -2.4 | -29.7
Clc1cccc(Cl)c1C[n+]1ccc2ccccc2c1 | -6.9 | 1.0% | · | 2.9 | 9.3% | 3.8 | -4.4
COc1ccc(CC(=O)NCC2CCCN(Cc3ccc(F)c(OC)c3)C2)cc1 (stereo not given) | -3.6 | -0.3% | -15.6 | -2.0 | 14.3% | 0.9 | -6.2
COc1ccc(OC)c(Cc2nnc(CCC(=O)NCc3ccc(C)s3)o2)c1 | -5.3 | -0.3% | 10.4 | -10.8 | 0.1% | 3.9 | -5.3
CCOC(=O)C1(CCOc2ccccc2)CCN(Cc2ccc(F)c(OC)c2)CC1 | 0.3 | ? | 0.0 | -8.0 | 11.3% | -10.0 | -23.9
O=C(/C=C/c1ccc2c(c1)OCO2)NCCCN1CCOCC1 | -2.9 | 3.8% | 15.4 | 5.1 | 6.6% | 0.4 | -3.7
Cc1cc(C(=O)COC(=O)C2CCN(C(=O)c3ccc(Cl)cc3)CC2)c(C)n1CC1CCCO1 (stereo not given) | 0.5 | 5.5% | -19.0 | 4.2 | 11.8% | -0.4 | -6.4
Cc1ccc(C(=O)CCC(=O)NCc2ccc(Cl)cc2)cc1 | -5.3 | 0.3% | 1.6 | -17.5 | · | 4.2 | -2.0
O=Cc1cn(CCC(=O)O)nc1-c1cc2ccccc2o1 | -7.3 | -0.9% | 2.3 | -6.7 | 19.2% | -0.1 | -3.8
COc1ccccc1NS(=O)(=O)c1cc(C(=O)N2CC(C)CC(C)C2)ccc1C (stereo not given) | -2.7 | -0.8%[38.3 µM] | 29.2 | -9.2 | 8.1% | 45.2 | -6.8
CC1=C(C)CC(C(=O)NC(C)CCc2ccccc2)C(C(=O)O)C1 (stereo not given) | 2.3 | 2.0% | 0.9 | -24.6 | 11.6% | 1.2 | -1.3
CCCCOc1ccc(C(=O)OCC(=O)c2c(N)n(C)c(=O)n(C)c2=O)cc1 | 1.7 | 1.2% | -9.9 | · | · | -2.2 | -2.9
O=C(N/N=C/c1ccccc1OC(F)F)c1cc(-c2ccncc2)nc2ccccc12 | 2.2 | 6.6% | -19.2 | 9.6 | ? | -13.4 | -3.1
O=C(NCc1ccccc1)C(C(=O)c1ccc(F)cc1)n1ccccc1=O (stereo not given) | 0.6 | -4.9% | 11.7 | 3.1 | 9.0% | 1.1 | -7.7
COc1ccc(C(=O)Cc2cc(OC)c(OC)cc2[N+](=O)[O-])cc1 | -3.5 | 25.5%[38.3 µM] | 11.8 | -27.0 | 15.3% | 1.4 | -1.4
Cc1ccc(NC(=S)NCc2ccc(S(N)(=O)=O)cc2)cc1Cl | 1.4 | 3.2% | 9.8 | 10.5 | 10.9% | -3.5 | -3.1
COc1ccccc1NC(=O)C12CC3CC(C1)CC(c1ccc(C)cc1)(C3)C2 | -3.5 | ? | 22.2 | 13.9 | 7.4% | 21.4 | -8.1
CC(C)N1CCN(CCCc2ccccc2)CC1CCO (stereo not given) | -2.9 | -0.8% | -2.8 | -5.0 | 4.6% | 4.5 | -2.7
CC(C)C1C(=O)N(Cc2cn(CCC3OCCO3)nn2)CCS(=O)(=O)N1Cc1ccc(-c2cccc(CO)c2)cc1 (stereo not given) | -7.2 | 1.6% | 0.2 | · | · | 3.8 | 1.0
COCCn1c(SCC(=O)c2c(N)n(C3CC3)c(=O)[nH]c2=O)nnc1-c1ccc(Cl)cc1 | 40.4* | 3.1% | -0.2 | 2.0 | · | 2.3 | -4.3
CN(C1CCCCC1)S(=O)(=O)c1cn(C)c(=O)n(C)c1=O | -1.9 | 2.0% | · | 6.2 | · | 3.7 | -3.8
CC12CCC(C(=O)NC(c3ccccc3)c3ccccc3)(OC1=O)C2(C)C (stereo not given) | -3.1 | 13.1%[38.3 µM] | 2.4 | -10.4 | 8.6% | -1.6 | -10.7
O=C1CSC(=S)N1c1ccc(Cl)c(Cl)c1 | -2.1 | 3.0% | -3.7 | -2.9 | -17.1% | 8.2 | -10.9
O=C(NCc1ccc(F)cc1)c1ccc2c(=O)n3c(nc2c1)CCCCC3 | -0.7 | 2.1% | -1.6 | -13.2 | 5.8% | 0.4 | -0.4
CC(Oc1ccccc1)C(=O)Nc1nnc(S(=O)(=O)N2CCCCCC2)s1 (stereo not given) | -5.9 | 0.1%&-0.4% | 1.2 | 23.5 | 33.4%[activator] | -5.1 | 0.3
O=C(c1ccc(C(=O)N2CCOCC2)s1)N1CCOCC1 | -2.9 | 0.8% | 0.3 | 6.7 | -1.5% | 1.9 | 2.6
NC(=O)c1ccsc1NC(=O)COC(=O)c1ccc(Cl)nc1 | -4.4 | 2.1% | -17.6 | 1.9 | · | 2.2 | 11.4
COc1ccc(C(=O)NCc2ccc(C)cc2)cc1S(=O)(=O)N1CCCc2ccccc21 | -4.0 | -3.8% | -0.2 | -1.2 | 12.9% | -3.5 | -2.5
CCOc1ccccc1CNc1nc2nc3c(c(=O)n2[nH]1)CCC3 | 3.1 | 0.9% | 7.4 | 1.9 | 11.8% | 6.4 | -5.7
Cc1ccccc1Cn1nnc2c1C(=O)c1ccccc1C2=O | ? | 3.4% | -11.1 | · | · | -9.5 | ?

6 consecutive compounds from above, quoted:
SMILES | D2 ag | PINK1 expr mod | CtBP-E1A inh | TRPV1 potentiator | Sfp inh | Six1-Eya2 blk | D2 potentiator
CC12CCC(C(=O)NC(c3ccccc3)c3ccccc3)(OC1=O)C2(C)C (stereo not given) | -3.1 | 13.1%[38.3 µM] | 2.4 | -10.4 | 8.6% | -1.6 | -10.7
O=C1CSC(=S)N1c1ccc(Cl)c(Cl)c1 | -2.1 | 3.0% | -3.7 | -2.9 | -17.1% | 8.2 | -10.9
O=C(NCc1ccc(F)cc1)c1ccc2c(=O)n3c(nc2c1)CCCCC3 | -0.7 | 2.1% | -1.6 | -13.2 | 5.8% | 0.4 | -0.4
CC(Oc1ccccc1)C(=O)Nc1nnc(S(=O)(=O)N2CCCCCC2)s1 (stereo not given) | -5.9 | 0.1%&-0.4% | 1.2 | 23.5 | 33.4%[activator] | -5.1 | 0.3
O=C(c1ccc(C(=O)N2CCOCC2)s1)N1CCOCC1 | -2.9 | 0.8% | 0.3 | 6.7 | -1.5% | 1.9 | 2.6
NC(=O)c1ccsc1NC(=O)COC(=O)c1ccc(Cl)nc1 | -4.4 | 2.1% | -17.6 | 1.9 | · | 2.2 | 11.4

Screening data: PubChem, National Center for Advancing Translational Sciences (NCATS)
